YB-1 expression: inhibitors of YB-1 gene expression, primary screen, cell-based, fluorescence; hit rate 0.37% among 30,000; delta delta Cp (YB-1 minus CDIP) (concentration not given with the values); U2OS, qRT-PCR YB-1 vs CDIP delta delta Cp, 16 h; active compounds read high; zero = DMSO, each unit about twofold; AID 434959, 2010;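 active = delta delta Cp rounded down to an integer at or above 3, about 3 SD of DMSO wells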;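 also: higher means less YB-1 transcript or more CDIP transcript relative to DMSO; stock transfer was 100 nL into about 100 µL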
An asterisk follows results filed as active.

SMILES	YB-1 expression
C=CCN1C(=O)[C@]2(O[C@H](CCn3cc([C@H](O)c4ccccc4)nn3)[C@@H]([Si](C)(C)c3ccc(OC)cc3)[C@@H]2C)c2ccccc21	-0.34
O=C1C[C@@](C(=O)NCc2ccccc2)(c2ccc([N+](=O)[O-])cc2)[C@@H](c2ccc(CO)cc2I)N1CC12CC3CC(CC(C3)C1)C2	-0.44
O=C(CCCCCC(=O)N/N=C/c1cc(O)ccc1[N+](=O)[O-])NO	-0.16
C[C@@H]1CN([C@H](C)CO)C(=O)CCCn2nncc2CO[C@@H]1CN(C)S(=O)(=O)c1cccs1	-0.32
O=C(NO)c1cccc(C(=O)N/N=C/c2cccc(B(O)O)c2)c1	-0.26
COCCCN1C(=O)[C@@]2(Cc3ccccc31)c1ccccc1C(=O)N(Cc1ccccc1C(F)(F)F)[C@H]2c1ccc(CO)cc1	-0.037
C=CCN1C(=O)[C@]2(O[C@H](CCO)[C@@H]([Si](C)(C)c3ccc(OC)cc3)[C@@H]2C)c2cc(NC(C)=O)ccc21	0.28
C=CC[C@H](OC(=O)Nc1ccc(OC)cc1)c1ccc(OCCO)cc1	0.3
O=C(NO)c1ccc(C(=O)N/N=C/c2ccccc2[N+](=O)[O-])cc1	0.95
O=C(CCCCC(=O)N/N=C/c1ccc(-c2ccccc2)c(F)c1)NO	0.43
O=C(CCCCC(=O)N/N=C/c1ccoc1)NO	-0.11
O=C1O[C@@H](c2ccccc2)[C@@H](c2ccccc2)N2[C@@H](c3ccc(OCCO)cc3)[C@]3(C(=O)Nc4ccc(C#CCCO)cc43)[C@@H](C(=O)N3CCN(c4ncccn4)CC3)[C@H]12	2.2

Continued, overlapping the part above by 2 compounds.
SMILES	YB-1 expression
O=C(CCCCC(=O)N/N=C/c1ccoc1)NO	-0.11
O=C1O[C@@H](c2ccccc2)[C@@H](c2ccccc2)N2[C@@H](c3ccc(OCCO)cc3)[C@]3(C(=O)Nc4ccc(C#CCCO)cc43)[C@@H](C(=O)N3CCN(c4ncccn4)CC3)[C@H]12	2.2
C[C@@H]1CN([C@H](C)CO)C(=O)CCCn2nncc2CO[C@@H]1CN(C)C(=O)C1CC1	-0.21
O=C(NO)c1cccc(C(=O)N/N=C/c2ccc(O)c(O)c2)c1	-0.3
COc1ccc(C#Cc2ccc3c(c2)[C@]2(C(=O)N3)[C@H](c3ccccc3OCCO)N3[C@H](c4ccccc4)[C@H](c4ccccc4)OC(=O)[C@H]3[C@@H]2C(=O)N2CCN(c3ncccn3)CC2)cc1	-0.013
COc1ccc(S(=O)(=O)N(C)C[C@@H]2OCc3cnnn3CCCC(=O)N([C@H](C)CO)C[C@H]2C)cc1	-0.063
Cc1cccc(CN(C)C[C@@H]2OCc3cn(nn3)CCCC(=O)N([C@H](C)CO)C[C@H]2C)c1	-0.49
O=C(N/N=C/C[P+](c1ccccc1)(c1ccccc1)c1ccccc1)c1ccccc1O	0.012
C[C@H](CO)N1C[C@H](C)[C@H](CN(C)Cc2ccncc2)Oc2ncc(-c3ccc(F)cc3)cc2C1=O	-0.18
C[C@H](CO)N1C[C@H](C)[C@H](CN(C)Cc2ccncc2)Oc2ncc(-c3cccc(F)c3)cc2C1=O	0.19
[N-]=[N+]=Nc1ccccc1C[C@@]1(C(=O)NCCN2CCOCC2)N=C(c2ccc(OCCCO)cc2)O[C@@H]1c1ccccc1N=[N+]=[N-]	-0.054
C[C@@H]1CN([C@H](C)CO)C(=O)CCCn2nncc2CO[C@H]1CN(C)C(=O)C1CC1	-0.64
C[C@@H]1CN([C@@H](C)CO)C(=O)CCCn2cc(nn2)CO[C@H]1CN(C)C(=O)Nc1cccc(F)c1	-0.048
CC1(C)[C@H]2CC=C(/C=N\NC(=O)c3ccccc3O)[C@@H]1C2	-0.094

Four entries picked at random from those above, as already listed:
SMILES	YB-1 expression
C[C@@H]1CN([C@H](C)CO)C(=O)CCCn2nncc2CO[C@@H]1CN(C)C(=O)C1CC1	-0.21
Cc1cccc(CN(C)C[C@@H]2OCc3cn(nn3)CCCC(=O)N([C@H](C)CO)C[C@H]2C)c1	-0.49
C[C@H](CO)N1C[C@H](C)[C@H](CN(C)Cc2ccncc2)Oc2ncc(-c3ccc(F)cc3)cc2C1=O	-0.18
O=C(NO)c1cccc(C(=O)N/N=C/c2ccc(O)c(O)c2)c1	-0.3

Carrying on:
SMILES	YB-1 expression
O=C(O)CCCCCC(=O)N/N=C/c1ccc(Br)o1	-0.28
COCCOC(=O)N1C(=O)[C@@]2(c3cc(C#CC4(O)CCCCCC4)ccc31)[C@H](C(=O)N1CCN(c3ncccn3)CC1)[C@H]1C(=O)O[C@H](c3ccccc3)[C@H](c3ccccc3)N1[C@@H]2c1ccc(O)cc1	0.083
C[C@@H]1CN([C@@H](C)CO)C(=O)CCCn2cc(nn2)CO[C@@H]1CN(C)C(=O)Nc1cccc(C(F)(F)F)c1	0.49
C[C@H](CO)N1C[C@H](C)[C@H](CN(C)Cc2cccnc2)OCc2cn(nn2)CCCC1=O	-0.24
CCCC(O)C#Cc1cnc2c(c1)C(=O)N([C@H](C)CO)C[C@H](C)[C@H](CN(C)S(=O)(=O)c1ccccc1)O2 (stereo partly drawn)	0.11
COCCCNC(=O)[C@@]1(Sc2ccc(C)cc2)CC(=O)N(C2CCCCC2)[C@@H]1c1ccc(CO)cc1I	-0.21
O=C(CCCCCC(=O)N/N=C/c1ccc([N+](=O)[O-])c(O)c1)NO	-0.053
Cc1noc(C)c1NC(=O)N(C)C[C@@H]1OCc2cn(nn2)CCCC(=O)N([C@H](C)CO)C[C@H]1C	-0.37
O=C(N/N=C/c1cccc(O)c1)c1ccccc1O	0.39
O=C(NCc1ccc(F)cc1)[C@H]1C[C@H]2C(=O)N3CCC[C@H]3C(=O)N2[C@H]1c1cccc(OCCO)c1	0.53
C[C@H]1CN([C@@H](C)CO)C(=O)CCCn2cc(nn2)CO[C@@H]1CN(C)C(=O)Nc1ccc(C(C)(C)C)cc1	0.31
COc1ccc(/C=N/NC(=O)CCCCC(=O)NO)cc1OC	0.4
C[C@@H]1CN([C@H](C)CO)C(=O)CCCn2cc(nn2)CO[C@@H]1CN(C)C(=O)Nc1ccc2c(c1)OCO2	0.087
COc1cccc(CN(C)C[C@H]2OCc3cn(nn3)CCCC(=O)N([C@@H](C)CO)C[C@@H]2C)c1	-0.62
O=C(c1ccccc1)N1Cc2ccccc2[C@@H]2OC(c3ccc(OCCCO)cc3)=N[C@]2(Cc2ccccc2)C1=O	-0.6
CCCC(O)C#Cc1cnc2c(c1)C(=O)N([C@H](C)CO)C[C@H](C)[C@H](CN(C)S(=O)(=O)c1cn(C)cn1)O2 (stereo partly drawn)	-0.19
O=C(CCCCC(=O)N/N=C/c1ccco1)NO	0.059
C[C@@H]1CN([C@H](C)CO)C(=O)CCCn2cc(nn2)CO[C@@H]1CN(C)Cc1ccc2cccnc2c1	-0.15
C[C@H](CO)N1C[C@H](C)[C@H](CN(C)S(C)(=O)=O)Oc2ncc(C#Cc3ccc(C(F)(F)F)cc3)cc2C1=O	0.31
COCCOC(=O)N1C(=O)[C@@]2(c3cc(C#Cc4ccc(OC)cc4)ccc31)[C@H](c1ccccc1OCCO)N1[C@H](c3ccccc3)[C@H](c3ccccc3)OC(=O)[C@H]1[C@@H]2C(N)=O	0.27
C[C@H](CO)N1C[C@H](C)[C@H](CN(C)Cc2ccccc2)Oc2ncc(C#Cc3ccccc3)cc2C1=O	-0.5
COC(=O)[C@@]1(CCS(=O)(=O)c2ccccc2)N=C(c2ccc(OCCCO)cc2)O[C@H]1c1ccccc1CN=[N+]=[N-]	-0.23
O=C1O[C@H](c2ccccc2)[C@H](c2ccccc2)N2[C@H]1[C@@H](C(=O)Nc1nc3ccccc3s1)[C@]1(C(=O)Nc3ccc(C#CC4(O)CCCCCC4)cc31)[C@H]2c1ccc(OCCO)cc1	0.16
COc1ccc([Si](C)(C)[C@H]2[C@H](CCO)O[C@@]3(C(=O)N(Cc4ccc(NC(C)=O)cc4)c4ccccc43)[C@@H]2C)cc1	0.092

As a working copy, some entries already given:
SMILES	YB-1 expression
C[C@@H]1CN([C@H](C)CO)C(=O)CCCn2cc(nn2)CO[C@@H]1CN(C)C(=O)Nc1ccc2c(c1)OCO2	0.087
COc1cccc(CN(C)C[C@H]2OCc3cn(nn3)CCCC(=O)N([C@@H](C)CO)C[C@@H]2C)c1	-0.62

Arranged by count of non-hydrogen atoms (high to low): some entries from above.
SMILES	YB-1 expression
COCCOC(=O)N1C(=O)[C@@]2(c3cc(C#Cc4ccc(OC)cc4)ccc31)[C@H](c1ccccc1OCCO)N1[C@H](c3ccccc3)[C@H](c3ccccc3)OC(=O)[C@H]1[C@@H]2C(N)=O	0.27
CCCC(O)C#Cc1cnc2c(c1)C(=O)N([C@H](C)CO)C[C@H](C)[C@H](CN(C)S(=O)(=O)c1cn(C)cn1)O2 (stereo partly drawn)	-0.19
O=C(CCCCC(=O)N/N=C/c1ccco1)NO	0.059

(more compounds)
SMILES	YB-1 expression
COCCCNC(=O)[C@@]1(Cc2ccccc2N=[N+]=[N-])N=C(c2ccc(OCCCO)cc2)O[C@H]1c1ccccc1N=[N+]=[N-]	-0.36
C[C@@H]1CN([C@@H](C)CO)C(=O)CCCn2cc(nn2)CO[C@@H]1CN(C)C(=O)NC1CCCC1	-0.081
C[C@@H]1CN([C@@H](C)CO)C(=O)CCCn2nncc2CO[C@H]1CN(C)C(=O)Nc1ccc2c(c1)OCCO2	-0.38
C=CCOc1ccccc1/C=N/NC(=O)c1ccc(C(=O)NO)cc1	0.62
CC(C)COC(=O)N(C)C[C@H]1OCc2cn(nn2)CCCC(=O)N([C@@H](C)CO)C[C@@H]1C	-0.13
COc1ccc(S(=O)(=O)N(C)C[C@@H]2Oc3ncc(Br)cc3C(=O)N([C@H](C)CO)C[C@@H]2C)cc1	0.12
C[C@H]1CN([C@@H](C)CO)C(=O)CCCn2cc(nn2)CO[C@@H]1CN(C)Cc1ccc(-c2ccccc2)cc1	0.099
C[C@@H]1CN([C@H](C)CO)C(=O)CCCn2cc(nn2)CO[C@H]1CN(C)C(=O)Nc1ccc2c(c1)OCCO2	-0.077
C[C@@H]1CN([C@H](C)CO)C(=O)CCCn2nncc2CO[C@H]1CN(C)S(=O)(=O)c1ccc(Oc2ccccc2)cc1	-0.033
COc1ccc(CCN2C(=O)[C@@]3(Cc4ccccc42)c2ccccc2C(=O)N(Cc2ccccc2C(F)(F)F)[C@H]3c2ccc(CO)cc2)cc1	0.25
C[C@@H]1CN([C@H](C)CO)C(=O)CCCn2cc(nn2)CO[C@@H]1CN(C)CC1CCCCC1	0.58
C[C@H](CO)N1C[C@H](C)[C@H](CN(C)C(=O)c2ccccc2)OCc2cnnn2CCCC1=O	0.031
O=C(CCCCCCC(=O)Nc1ccccc1O)N/N=C/c1cccc(B(O)O)c1	-0.64
C[C@@H]1CN([C@H](C)CO)C(=O)CCCn2cc(nn2)CO[C@@H]1CN(C)C(=O)Nc1cccc2ccccc12	0.17
C=CC[C@@]1(C(=O)NCC(O)CO)N=C(c2ccc(OCCCO)cc2)O[C@@H]1c1ccccc1 (stereo partly drawn)	0.63
COCCCN1C(=O)[C@@]2(Cc3ccccc31)c1ccccc1C(=O)N(Cc1ccccc1)[C@H]2c1ccc(CO)cc1	-0.12
NC(=O)[C@@H]1[C@H]2C(=O)O[C@H](c3ccccc3)[C@H](c3ccccc3)N2[C@H](c2ccc(OCCO)cc2)[C@@]12C(=O)Nc1ccccc12	0.018
COc1cccc(-c2cnc3c(c2)C(=O)N([C@H](C)CO)C[C@H](C)[C@H](CN(C)C)O3)c1	-0.15
COc1cccc(-c2cnc3c(c2)C(=O)N([C@H](C)CO)C[C@H](C)[C@H](CN(C)S(=O)(=O)c2cccc(OC)c2)O3)c1	-0.12
O=C(N/N=C/c1cc(Br)cc([N+](=O)[O-])c1O)c1ccccn1	-0.29
COc1cccc(NC(=O)N(C)C[C@@H]2OCc3cn(nn3)CCCC(=O)N([C@H](C)CO)C[C@H]2C)c1	-0.23
NCCCCCCNC(=O)[C@@H]1C[C@@H]2C(=O)N[C@@H](Cc3ccccc3)C(=O)N2[C@@H]1c1ccc(O)cc1	-0.33
COc1ccccc1CN1C(=O)c2ccccc2[C@@]2(Cc3ccccc3N(CCN3CCOCC3)C2=O)[C@@H]1c1ccc(CO)cc1	0.05
C[C@H](CO)N1C[C@H](C)[C@@H](CN(C)S(=O)(=O)c2ccc(Oc3ccccc3)nc2)OCc2cnnn2CCCC1=O	0.069
COc1ccc(S(=O)(=O)N(C)C[C@H]2OCc3cn(nn3)CCCC(=O)N([C@H](C)CO)C[C@H]2C)cc1	-0.27
C[C@H](CO)N1C[C@H](C)[C@H](CN(C)C(=O)c2ccc(N3CCN(C)CC3)cc2)OCc2cn(nn2)CCCC1=O	-0.071
O=C(N/N=C/c1ccc(-c2cccc(Cl)c2)o1)c1ccccc1O	0.32
C[C@@H]1CN([C@H](C)CO)C(=O)CCCn2nncc2CO[C@@H]1CN(C)S(=O)(=O)c1ccccc1	-0.2
COc1ccc(S(=O)(=O)N(C)C[C@@H]2OCc3cn(nn3)CCCC(=O)N([C@H](C)CO)C[C@@H]2C)cc1	-0.33
C[C@@H]1CN([C@@H](C)CO)C(=O)CCCn2nncc2CO[C@@H]1CN(C)S(=O)(=O)c1ccc(Oc2ccccc2)cc1	-0.036
CCCN(C)C[C@H]1OCc2cnnn2CCCC(=O)N([C@H](C)CO)C[C@H]1C	-0.3
CCCC(O)C#Cc1cnc2c(c1)C(=O)N([C@H](C)CO)C[C@H](C)[C@H](CN(C)S(=O)(=O)c1ccc(OC)cc1)O2 (stereo partly drawn)	0.093
O=C(NO)c1ccc(C(=O)N/N=C/c2ccc([N+](=O)[O-])c(O)c2)cc1	-0.44
C=CC[C@]1(C(=O)NCCN2CCOCC2)COC(c2ccc(OCCCO)cc2)=N1	0.23
C[C@H]1CN([C@@H](C)CO)C(=O)CCCn2cc(nn2)CO[C@@H]1CN(C)S(=O)(=O)c1ccccc1F	-0.11
O=C1O[C@@H](c2ccccc2)[C@@H](c2ccccc2)N2[C@@H](c3ccc(O)cc3)[C@]3(C(=O)Nc4ccc(C#CC5(O)CCCCCC5)cc43)[C@@H](C(=O)NC[C@H](O)c3ccccc3)[C@H]12	-0.045
C[C@@H]1CN([C@H](C)CO)C(=O)CCCn2nncc2CO[C@H]1CN(C)C(=O)Nc1cccc2ccccc12	0.26

The list is partial; rates above refer to the full screens.
